Mtb H37Rv: Mycobacterium tuberculosis H37Rv growth inhibition, cell based, confirmatory dose response (AID 1949) | actives 1.6% (n = 100,000) | inhibition, % at 10 µg/mL, or IC50 in µg/mL where a hit was titrated | most inactive calls were filed without a number and no value below 0 was filed;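 active = confirmed in a dose series; inconclusive = about 50% or more but not retested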;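 also: bacteria grown 7 days with compound before Alamar blue readout; 0% = untreated bacteria and 100% = reference antibiotic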
Starred values were filed as active, the others as inactive; i = inactive; ? = inconclusive. Not all compounds are listed, so the mix of outcomes need not match the whole.

The opening 5 compounds (preview)
SMILES	Mtb H37Rv
Cc1ccc2nc(-c3ccc(NC4=NS(=O)(=O)c5ccccc54)cc3)sc2c1	i
COc1cc2c(c(OC)c1OC)C(c1ccccc1Cl)CC(=O)N2 (stereo not drawn)	i
COc1ccc(NC(=O)Cn2cc(C#N)c3ccccc32)cc1	i
CCOc1cc(-c2cc(OCC)c3c(C)oc(C)c3c(=O)c2)ccc1O	16.7%
CCOc1ccccc1NC(=S)N1CCCCCC1	i

The listing, previewed entries included:
SMILES	Mtb H37Rv
Cc1ccc2nc(-c3ccc(NC4=NS(=O)(=O)c5ccccc54)cc3)sc2c1	i
COc1cc2c(c(OC)c1OC)C(c1ccccc1Cl)CC(=O)N2 (stereo not drawn)	i
COc1ccc(NC(=O)Cn2cc(C#N)c3ccccc32)cc1	i
CCOc1cc(-c2cc(OCC)c3c(C)oc(C)c3c(=O)c2)ccc1O	16.7%
CCOc1ccccc1NC(=S)N1CCCCCC1	i
COc1ccc(N2CC(C(=O)Nc3ccc(NC(C)=O)cc3)CC2=O)cc1 (stereo not drawn)	i
COC(=O)c1cccc(NC(=O)CSc2ccccc2)c1	8.8%
COc1ccccc1CN(C)CCc1ccccn1	i
CCOc1ccccc1N(CC(=O)Nc1ccc(Cl)cc1)S(C)(=O)=O	3.6%
Cc1ccc(NC(=O)Nc2cccc([N+](=O)[O-])c2)cc1F	?
COc1ccc(N(CC(=O)Nc2ccccc2C)S(C)(=O)=O)cc1	2.1%
O=C(c1ccc(Cl)cc1Cl)N1CCCN(C(=O)c2ccc(Cl)cc2Cl)CC1	i
O=[N+]([O-])c1ccccc1N1CCN(S(=O)(=O)c2ccc(F)cc2)CC1	2.0%
CCCC(=O)Nc1ccc(OC(C)C)cc1	i
N#CCc1ccc(NC(=O)C2(c3ccc([N+](=O)[O-])cc3)CCCC2)cc1	i

Structures from the list above with fluorine (2):
SMILES	Mtb H37Rv
Cc1ccc(NC(=O)Nc2cccc([N+](=O)[O-])c2)cc1F	?
O=[N+]([O-])c1ccccc1N1CCN(S(=O)(=O)c2ccc(F)cc2)CC1	2.0%

Later entries:
SMILES	Mtb H37Rv
CSc1nsc(SCC(=O)N2CCN(C(c3ccccc3)c3ccccc3)CC2)n1	i
CC1(C)CC2CC(C)(CN2C(=O)c2cccs2)C1 (stereo not drawn)	i
c1ccc(CN2CCN(c3ncnc4ccccc34)CC2)cc1	i
O=C(COc1ccccc1[N+](=O)[O-])Nc1cccc(-c2nc3cc(Cl)cc(Cl)c3o2)c1	i
COc1ccccc1-c1c(C(F)(F)F)oc2cc(OCC#N)ccc2c1=O	i
O=C1NC(=O)C(Cc2ccccc2)C(=O)N1	i
COCCN1C(=O)c2oc3ccc(F)cc3c(=O)c2C1c1cccc(Cl)c1 (stereo not drawn)	i
N=C1C(c2nc3ccccc3s2)=C(O)CN1CCCN1CCOCC1	3.5%
Cc1cc(C)nc(NS(=O)(=O)c2ccc(NC(=O)CCN3C(=O)c4ccccc4S3(=O)=O)cc2)n1	i
CCc1cc(C(=O)OC)c(NC(=S)N2CCC(Cc3ccccc3)CC2)s1	i
COc1cc(N2CCOCC2)ccc1C=O	i
Cc1ccccc1NC(=O)NCCCN1CCCC1	i
CCN(CC)C(=O)CSc1nc(-c2ccccc2)ccc1C#N	i
Cc1sc2ncn(CC(=O)Nc3ccccc3)c(=O)c2c1C	i
CC(=O)Nc1ccc(S(=O)(=O)N2CCN(C(=O)C(c3ccccc3)c3ccccc3)CC2)cc1	i
CCOC(=O)c1cnc2c(Cl)cc(Cl)cc2c1N1CCN(Cc2ccccc2)CC1	1.4%
O=C(Cc1ccccc1)NCC(=O)OCc1ccc(Cl)cc1	i
O=S1(=O)C=C(Oc2ccc(F)cc2)c2ccccc21	1.0%
CC(=O)c1cccc(NC(=O)c2ccc(Oc3ccc([N+](=O)[O-])cc3)cc2)c1	15.0%
COc1ccc(-c2csc(Nc3ccc(O)cc3)n2)cc1	i
Brc1cccc(OCCSc2ncccn2)c1	5.5%
O=C(Nc1ccc(OCC(=O)N2CCOCC2)cc1)c1cccc(Cl)c1	9.1%
COc1ccc(-c2nc3ccccc3n2CCOc2ccc(C)cc2)cc1OC	4.7%
COc1ccc(OCCN2C(=O)c3cccc4cccc(c34)C2=O)cc1	i
CC1(C)Cc2c(c(N3CCOCC3)nc3sc4c(NCc5ccccc5)nnnc4c23)CS1	?
N#C/C(=C/c1cc(Br)ccc1OCc1ccccc1F)C(N)=S	i
COc1ccc([N+](=O)[O-])cc1CSc1ccccn1	i
CN(C(=O)c1ccco1)c1ccccc1C(=O)NCCc1ccccc1	i
COc1cc(Cl)cc(/C=C/c2ccc3ccccc3n2)c1OC(C)=O	i
CCOc1ccccc1NC(=O)c1cc(Cl)ccc1NC(=O)c1ccc(OC)cc1	i
CCSc1nnc(NC(=O)c2ccco2)s1	i
CC1CC(C)CN(C(=O)Nc2ccc(Cl)c(Cl)c2)C1 (stereo not drawn)	1.21µg/mL*
Cn1nnc2cc(NC(=O)NCc3ccc4c(c3)OCO4)ccc21	i
O=S(=O)(NN1CCOCC1)c1ccc(Br)cc1	i
COc1ccc(OCc2nc3ccccc3n2Cc2ccccc2F)cc1	3.4%
Cc1cccc(-c2cc3nc(C)c(Cl)c(=O)n3[nH]2)c1	i
COc1ccc(C)cc1N(CC(=O)Nc1cccc(SC)c1)S(=O)(=O)c1ccccc1	4.7%
CC1=CCC2C(=O)N(CCc3c[nH]c4ccccc34)C(=O)C2C1 (stereo not drawn)	6.8%
O=C(CC1Sc2ncnn2C1=O)Nc1ccc(Cl)cc1 (stereo not drawn)	20.3%
CCc1c(-c2ccc(Cl)s2)nc2ccc(Br)cc2c1C(=O)O	i
CCC(C)c1ccccc1NC(=S)NC(=O)c1cc2ccccc2o1 (stereo not drawn)	i
COc1cc(NC(=S)NC(=O)c2ccc(OC)c([N+](=O)[O-])c2)ccc1NC(=O)c1ccccc1Cl	0.0%
CN(c1ccccc1C(=O)NC1CCCCC1)S(C)(=O)=O	i
Cc1ccccc1NS(=O)(=O)c1ccc(C)c(NS(C)(=O)=O)c1C	i
COc1ccc(NC(=S)Nc2ccccc2C(F)(F)F)cc1OC	i
CCCCc1cc(=O)oc2cc(C)cc(OCC(=O)OCc3ccccc3)c12	i
CCOC(=O)C1CCN(C(=O)COc2ccc(S(=O)(=O)NCc3ccccc3)cc2)CC1	0.1%
O=C(CC(NCc1ccccc1)C(=O)O)Nc1ccc(O)cc1 (stereo not drawn)	i
COc1ccc([N+](=O)[O-])cc1NC(=O)c1cc2c(s1)CCCC2	3.6%
CC1CCCCC1NC(=O)C(=O)Nc1cccc(C(F)(F)F)c1 (stereo not drawn)	i
O=C(CSc1nc2ccccc2[nH]1)Nc1ccccc1N1CCOCC1	i
CCc1ccc(OC(C)c2nnc(SCC(=O)Nc3ccc(C)c(C)c3)n2CC)cc1 (stereo not drawn)	1.1%
COc1cc(NC(=O)c2ccccc2OCC(=O)c2ccc(Br)cc2)cc(OC)c1OC	i
COc1ccc(CCNCc2cc(Cl)cc(Cl)c2OC)cc1OC	i
COc1cccc(C(=O)N/C(=N/c2nc(C)cc(C)n2)Nc2cc(Cl)ccc2OC)c1	4.0%
COCCCN1C(=O)C(O)=C(C(=O)c2cccs2)C1c1cccc(Cl)c1 (stereo not drawn)	i
CCOc1ccc(NC(=O)CSc2nc3ccccc3o2)cc1	32.0%
CS(=O)(=O)Nn1cnc2ccccc2c1=O	i
COc1ccc2nc(C)cc(N3CCOCC3)c2c1	i
O=C(Cn1cnc2scc(-c3ccccc3)c2c1=O)Nc1ccc(Oc2ccccc2)cc1	i

Further records.
SMILES	Mtb H37Rv
Fc1ccc(Oc2nnnn2-c2ccccc2)cc1	i
O=C(c1ccco1)N1CCN(C(=S)NCc2ccc(F)cc2)CC1	8.5%
CCOC(=O)c1ccc(N2C(=O)CC(Sc3ccccc3C(=O)O)C2=O)cc1 (stereo not drawn)	i
CC(Oc1ccc(C(=O)NCCc2ccccc2)cc1)C(=O)OCc1ccccc1 (stereo not drawn)	2.32µg/mL*
COc1ccc(CNc2ncnc3c2cnn3-c2ccc(Cl)cc2)cc1	i
COC(=O)Nc1ccccc1NC(=O)OC	1.4%
C=CCn1c(COc2ccc(C(C)C)cc2)nnc1SCC(=O)Nc1c(Cl)cc(Cl)cc1Cl	i
O=C(NC(Cc1ccccc1)C(=O)O)c1ccc(Cl)cc1 (stereo not drawn)	i
Cn1c(CNC(=O)c2ccccc2)nnc1SCC(=O)Nc1ccccc1	i
COc1nc(SC(C(C)=O)C(C)=O)nc(N(C)C)n1	i
CCCCOc1ccccc1NC(=O)c1cccc2ccccc12	17.9%
O=C(c1ccccc1)c1cccc(NC(=O)c2ccco2)c1	2.3%
CC1=CC(=C2C(=O)NC(=S)NC2=O)C=C(C(F)(F)F)N1C	8.1%
COC(=O)Nc1ccc(S(=O)(=O)N2CCCC(C(=O)Nc3ccc4c(c3)OCO4)C2)cc1 (stereo not drawn)	i
CCN(CC)C(=O)Cn1cnc2scc(-c3ccccc3)c2c1=O	i
Cc1ccc(-c2nnc3sc(Cc4ccccc4)nn23)cc1	<0.1µg/mL*
CC(C)CC(=O)N1CCN(C(=O)C2CC2)CC1	i
O=C(Nc1nonc1NC(=O)c1ccc2c(c1)OCO2)c1ccc2c(c1)OCO2	i
COc1ccc(-c2nnc(SCC(=O)Nc3ccc(C)c(Cl)c3)n2C)cc1	i
O=Cc1cc(Cl)ccc1OCc1ccc(C(=O)O)cc1	i
Cc1cc(NC(=O)CCc2ccc(C)o2)no1	0.1%
O=C(c1cn(-c2ccccc2)nc1-c1cccc(Br)c1)N1CCOCC1	6.7%
Cc1ccc(OCCSCc2nc3ccccc3[nH]2)cc1	i
CN1CCN(C(=O)c2cccc(COc3cc(Cl)ccc3Cl)c2)CC1	10.6%
CCOc1ccc(NC(=O)NNC(=O)C(C)Oc2ccccc2OC)cc1 (stereo not drawn)	i
CCC(C)(C)NC(=O)CCC1CCCCC1	i
COc1ccc2nc(NC3=NC(c4ccccc4)CC(=O)N3)nc(C)c2c1 (stereo not drawn)	i
CSc1cccc(NC(=O)CN(Cc2ccccc2C)S(=O)(=O)c2ccc(Cl)cc2)c1	2.3%
Cc1c(Cl)cccc1NC(=O)c1ccc(OCC(=O)NC2CCCCC2)cc1	i
O=C(CNC(=O)C1CCCCC1)Nc1ccc([N+](=O)[O-])cc1	i
N/C(=N\OC(=O)Cc1ccccc1[N+](=O)[O-])c1cccnc1	i
CC1CN(C(=O)N2CCCCC2)CCN1C(=O)N1CCCCC1 (stereo not drawn)	i
Cc1cc(Br)cc(C)c1OCC(=O)NC(C)C	5.6%
COc1ccccc1C1=NN(C(=O)CCC(=O)O)C(c2ccccc2Cl)C1 (stereo not drawn)	i
COc1ccc(C(=O)NNC(=O)c2ccc(NC(=O)c3ccccc3)cc2)cc1Br	i
CC(C)(C)OC(=O)CCN1CCC(C(N)=O)CC1	i
CC(=O)NCCOc1ccc(NC(C)=O)cc1	i
CCOc1ccc2nc(NC(=O)c3ccoc3C)sc2c1	36.1%
CCOC(=O)C1CCN(S(=O)(=O)c2ccc(OC)c(OC)c2)CC1	i
CCCC(=O)Nc1nc2c(s1)C(=O)CC(C)(C)C2	i
COC(=O)c1ccccc1NC(=O)NNC(=O)C1CCN(Cc2ccc(F)cc2Cl)CC1	5.8%
O=C(c1cccc(Cl)c1)N1CCN(S(=O)(=O)c2ccc(Cl)cc2)CC1	i
CC1(C)Cc2c(sc3ncn4nc(-c5ccccn5)nc4c23)C(C)(C)N1	i
COc1cccc(-c2cc(C(=O)Nc3cc(C)ccc3OC)c3ccccc3n2)c1	i
O=S(=O)(c1ccc(F)c(Cl)c1)N1CCCC1	i
O=C(COc1ccccc1F)N1CCOCC1	i
CCc1ccccc1NC(=O)c1ccc(S(=O)(=O)N2CCCCC2C)cc1 (stereo not drawn)	i
CCC(C)Oc1ccccc1OCCN1C(=O)NC(C)(C)C1=O (stereo not drawn)	i
Cc1ccc(OCC(=O)Nc2ccc3c(c2)Cc2ccccc2-3)c(C)c1	1.9%
CCc1sc(NS(=O)(=O)Cc2ccccc2)nc1-c1ccccc1	i
CCCCNC(=O)c1ccc(CN(c2ccccc2)S(C)(=O)=O)cc1	5.1%
CCCCOc1ccc(C(=O)Nc2ccc(Cl)c(Cl)c2)cc1OC	i
CC(=O)c1cc(Cl)ccc1OC(=O)c1ccc([N+](=O)[O-])cc1	i
COc1ccc2[nH]c3c(c2c1)CCn1c-3nc2sc(C(=O)Nc3ccccc3)c(C)c2c1=O	i
O=C(NCc1ccco1)C1CC(=O)N(c2ccc(F)cc2)C1 (stereo not drawn)	i
N#C/C(=C\c1ccc(Br)s1)S(=O)(=O)c1ccccc1	i
CCC(C)c1ccc(NC(=S)NCc2cccs2)cc1 (stereo not drawn)	?
COc1ccccc1C1C=C(c2ccccc2Cl)Nc2ncnn21 (stereo not drawn)	2.9%
O=C(Nc1ccc(Cl)cc1Cl)N1CCCc2ccccc21	i
CCOc1cc(CNC2C3CC4CC(C3)CC2C4)cc(Cl)c1OCC(N)=O (stereo not drawn)	0.2%

Remaining list, next part.
SMILES	Mtb H37Rv
Cc1ccc(S(=O)(=O)N2CCN(S(=O)(=O)N3CCOCC3)CC2)cc1	i
CCc1ccccc1NC(=O)COc1ccc(C(=O)NC2CCCCC2)cc1	13.7%
Cc1c(NC(=S)NC(=O)c2ccc(Cl)cc2)cccc1C(=O)O	i
Brc1ccc(-c2csc(N/N=C/c3ccc4c(c3)OCO4)n2)cc1	0.7%
